2A StopGo – High Throughput Screening for Foot and Mouth Disease Virus Antivirals; 410,000 tested, 1.2% active; human cells with a luciferase reporter of 2A StopGo recoding; control for the full effect not named in the record; Potency, µM (highest dose often 57.9 µM), for inactives: at the highest dose signal change, negative = less light; active = well fitted falling curve with a large enough effect; inconclusive = small, poorly fitted or top-dose-only effect; inactive = no such curve, though single readings can be large or run the other way; tested in HEK293T cells; further: on the % scale 0 is the no-effect control and ±100 the full control effect; nearly all actives have a fitted effect of over 45% in size; luciferase light after 4 h
Marburg entry inh – qHTS for inhibitors of binding or entry into cells for Marburg Virus; Marburg virus pseudotyped entry inhibition, cell reporter; control for the full effect not named in the record; about a third of the inactives were read at about 46 µM; Potency, µM (series often up to 37.8 µM), for the others: at the highest dose activity change, negative = inhibition, actives largely listed as inhibitors; 300,000 tested, 1.8% active; active = well fitted inhibition curve with a large enough effect; inconclusive = small, poorly fitted or top-dose-only effect, or effect the other way; inactive = flat fitted curve, though single readings scatter; tested in HEK293 cells; about a fifth of its hits are not listed in these tables; further: on the % scale 0 is the no-effect control and ±100 the full control effect; luciferase read-out
Cruzain Triton – qHTS Assay for Promiscuous and Specific Inhibitors of Cruzain (with detergent) | Cruzipain (Trypanosoma cruzi), P25779 | purified cruzain, Z-FR-AMC fluorescence, 0.01% Triton | Potency, µM, without a hit: max response, negative = inhibition, usual class: inhibitors | 200,000 tested, 0.43% active | AID 1478, 2009;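 further: plate controls were neutral wells for no effect and buffer without enzyme for full effect; nearly all actives have a fitted effect of over 40% in size; top concentration of the series not given in the record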
Target sequence (P25779 123-467 limits assumed): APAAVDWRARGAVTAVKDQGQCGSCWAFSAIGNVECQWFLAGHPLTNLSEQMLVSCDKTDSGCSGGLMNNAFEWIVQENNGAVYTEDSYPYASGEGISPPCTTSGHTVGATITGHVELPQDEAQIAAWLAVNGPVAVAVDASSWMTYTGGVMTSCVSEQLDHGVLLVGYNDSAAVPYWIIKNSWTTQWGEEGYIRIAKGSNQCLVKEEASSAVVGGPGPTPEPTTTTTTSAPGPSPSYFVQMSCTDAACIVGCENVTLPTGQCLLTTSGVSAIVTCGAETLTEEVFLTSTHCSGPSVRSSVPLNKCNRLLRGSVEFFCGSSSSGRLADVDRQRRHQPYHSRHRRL
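Detergent-containing run (0.01% Triton X-100) in acetate buffer pH 5.5 with 5 mM DTT: enzyme at 1.5 nM final, 15 min compound preincubation at room temperature, then 2 uM Z-FR-AMC substrate. Activity taken as 60 s fluorescence increase at 360/450 nm.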
LASV entry inh – qHTS for Inhibitors of binding or entry into cells for Lassa Virus; 300,000 tested, 1.2% active; Potency, µM (doses to about 37.9 µM), without a hit: at the top dose activity change, negative = inhibition, actives largely listed as inhibitors; Lassa virus pseudotype entry inhibition, cell reporter; control for the full effect not named in the record; active means well fitted inhibition curve with a large enough effect; inconclusive means small, poorly fitted or top-dose-only effect, or effect the other way; inactive means flat fitted curve, though single readings scatter; tested in HEK293 cells; further: on the % scale 0 is the no-effect control and ±100 the full control effect; nearly all actives have a fitted effect of over 50% in size; luciferase read-out
RE007 growth inh – qHTS Assay for Inhibitors of the HIV-1 protein Vpr. S. pombe RE007 Vpr strain, BacTiter-Glo ATP luminescence, 24 h; control for the full effect not named in the record. Potency, µM (doses to about 92.2 µM), for the others: top-dose activity change, negative = less growth. 360,000 tested, 0.21% active. AID 651644, 2012; active = well fitted falling curve with a large enough effect; inconclusive = small, poorly fitted or top-dose-only effect; inactive = no such curve, though single readings can be large or run the other way;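 further: on the % scale 0 is the no-effect control and ±100 the full control effect; nearly all actives have a fitted effect of over 50% in size; the assay follows cell death caused by Vpr and the record does not say whether a fall means rescue or toxicity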
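Fission yeast RE007 carrying one integrated HIV-1 vpr copy, seeded at OD 0.01 in PMG+AL medium with 23 nL pinned compound. Grown 24 h at 30 degrees; viability read by BacTiter-Glo luminescence after 5 min.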
Cruzain inh noDet – qHTS Assay for Promiscuous and Specific Inhibitors of Cruzain (without detergent) | Cruzipain (Trypanosoma cruzi), P25779 | purified cruzain, Z-FR-AMC fluorescence, no detergent | Potency, µM, without a hit: max response, negative = inhibition, hits mostly inhibitors | 200,000 tested, 2.3% active | AID 1476, 2009;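 further: plate controls were enzyme without inhibitor for no effect and buffer without enzyme for full effect; nearly all actives have a fitted effect of over 40% in size; top concentration of the series not given in the record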
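Detergent-free condition (0.00005% Triton X-100) in acetate buffer pH 5.5 with DTT. 1.5 nM enzyme and compound were pre-mixed 15 min, then 2 uM Z-FR-AMC substrate added; reaction progress from fluorescence change between first and third reads (60 s).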
SARS PLpro yeast – qHTS of Yeast-based Assay for SARS-CoV PLP; S. cerevisiae expressing SARS-CoV PLpro, growth rescue; control for the full effect not named in the record; Potency, µM (highest dose often 32.9 µM), for inactives: top-dose activity, positive = growth rescue; 330,000 tested, 0.19% active; AID 485353, 2010; active means well fitted rising curve with a large enough effect; inconclusive means small, poorly fitted or top-dose-only effect; inactive means no such curve, though single readings can be large or run the other way; further: 0% is about no effect; nearly all actives have a fitted effect of over 55% in size; growth read by luminescence after 48 h
NS1 function inh – qHTS Assay for Inhibitors of Influenza NS1 Protein Function; S. cerevisiae slowed by influenza A NS1, growth recovery by OD600; 270,000 tested, 0.4% active; AID 2326, 2010; Potency, µM (doses to about 46.1 µM), for inactives: at the top dose activity, positive = more growth; active means well fitted rising curve with a large enough effect; inconclusive means small, poorly fitted or top-dose-only effect; inactive means no such curve, though single readings can be large or run the other way; further: nearly all actives have a fitted effect of over 50% in size
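OD600 was taken as the measure of yeast growth restored by compound in an NS1-expressing S. cerevisiae strain. Cells had been washed out of glucose medium and diluted 1:100 into galactose -URA medium, pH 6.0.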
Starred values were filed as active, the others as inactive; & = joins results of further samples; [ ] = another dose, or the depositor's remark. Unless noted, the call rests on the fitted dose curve; in most records, active means well fitted curve in the direction sought with a large enough effect; inconclusive means small, poorly fitted or top-dose-only effect, or another doubt; inactive means no such curve, though single readings can be large; an effect the other way counts as inactive or inconclusive. Potency means the concentration at half of the fitted maximal effect.

Screening C[C@H](NC(=O)NC1CCCc2ccccc21)C(=O)O (stereo partly drawn) returned 2A StopGo -3%, Marburg entry inh 2%, Cruzain Triton 4.2%, LASV entry inh 12%, RE007 growth inh -7%, Cruzain inh noDet -3%, SARS PLpro yeast 6% and NS1 function inh -3%.
COc1cccc(N2CCC(N3CCN(C)C(CCO)C3)CC2)c1 (stereo not drawn) was read as 2A StopGo 12%, RE007 growth inh 6%, SARS PLpro yeast inconclusive and NS1 function inh -3%.
Screening COc1ccc(C(=O)N(CC2CCCO2)C(C(=O)NCCC(C)C)c2ccc(C)cc2)cc1OC (stereo not drawn) returned 2A StopGo 19%, Marburg entry inh 0%, Cruzain Triton -2.6%, LASV entry inh inconclusive, RE007 growth inh 11%, Cruzain inh noDet 12%, SARS PLpro yeast 9% and NS1 function inh -9%.
COc1ccc(N(C)C(=O)c2sc(Cl)nc2C)cc1 was read as 2A StopGo -3%, RE007 growth inh -3%, SARS PLpro yeast 2% and NS1 function inh 5%.
CC(C)(C)NC(=O)C(c1ccc(O)cc1)N(Cc1ccccc1)C(=O)CCC(=O)Nc1nccs1 (stereo not drawn) was read as 2A StopGo -2%, Marburg entry inh -28%[46.1 µM], LASV entry inh -10%, RE007 growth inh 6%, SARS PLpro yeast -1% and NS1 function inh -14%.
For CC(C)(C)c1cn(-c2ccc(F)cc2)c(=S)[nH]1 the results were 2A StopGo -22%, Marburg entry inh -5%, Cruzain Triton 2.1%, LASV entry inh 20%, RE007 growth inh 22%, Cruzain inh noDet 0%, SARS PLpro yeast 0% and NS1 function inh -3%.
Screening O=C(O)c1cccc(-n2cccc2/C=C2/NC(=O)N(c3cccc(Cl)c3)C2=O)c1 returned 2A StopGo -4%, Marburg entry inh 1%[46.1 µM], LASV entry inh 8%, RE007 growth inh 16%, SARS PLpro yeast 3% and NS1 function inh 11%.
For CC(Sc1nc(=O)cc(N)n1CCc1ccccc1)C(=O)Nc1cccc(Cl)c1 (stereo not drawn) the results were 2A StopGo -14%, Marburg entry inh inconclusive, Cruzain Triton -7.7%, LASV entry inh 0%[46.1 µM] and Cruzain inh noDet inconclusive.
For Cc1ccc(-n2ncc3c(NCCCN4CCOCC4)ncnc32)cc1 the results were 2A StopGo 22%, Cruzain Triton 1.6%, LASV entry inh inconclusive and Cruzain inh noDet 14%.
Screening CC(C)NC(=O)c1ccc(-n2nc(C(F)(F)F)c3c2CCCC3)cc1 returned 2A StopGo -4%, Marburg entry inh inconclusive, Cruzain Triton 1.9%, LASV entry inh 7%, RE007 growth inh 1%, Cruzain inh noDet -14%, SARS PLpro yeast -6% and NS1 function inh -1%.
Screening CCCn1c(NCc2cc(C)ccc2O)nc2ccccc21 returned 2A StopGo -8%, Marburg entry inh inconclusive, Cruzain Triton -1.3%, LASV entry inh inconclusive, RE007 growth inh -10%, Cruzain inh noDet 1%, SARS PLpro yeast 5% and NS1 function inh -42%.
`Cc1cccc(/C=C\c2nc3ccccc3c(=O)[nH]2)c1` gave 2A StopGo 9%, Marburg entry inh inconclusive, Cruzain Triton 27%, LASV entry inh inconclusive, RE007 growth inh -7%, Cruzain inh noDet inconclusive, SARS PLpro yeast 12% and NS1 function inh -20%.
`Cc1ccccc1C(=O)Nc1cc(-c2cc(C(C)(C)C)oc2C)nn1C` gave 2A StopGo -29%, Marburg entry inh inconclusive, LASV entry inh -11%, RE007 growth inh 18%, SARS PLpro yeast -4% and NS1 function inh -1%.
For CCOC(=O)C1CCCN(C(=O)c2cc3ccccc3oc2=O)C1 (stereo not drawn) the results were 2A StopGo 6%, RE007 growth inh 5%, SARS PLpro yeast 0% and NS1 function inh 3%.
For Oc1ccc(-c2cn3ccccc3n2)cc1 the results were 2A StopGo 10%, RE007 growth inh -15%, SARS PLpro yeast -2% and NS1 function inh -5%.
Screening Cc1ccc(NC(=O)NC(=O)CN2CCN(c3ccc(O)cc3)CC2)c(C)c1 returned 2A StopGo -5%, Marburg entry inh -1%[46.1 µM], LASV entry inh -26%[46.1 µM], RE007 growth inh -11%, SARS PLpro yeast -5% and NS1 function inh 8%.
`Cc1ccccc1CS(=O)(=O)Cc1ccc(C(=O)NCCc2ccccc2)o1` gave 2A StopGo -7%&-25%, Cruzain Triton 0.9%, LASV entry inh 4%[46.1 µM], RE007 growth inh 2%, Cruzain inh noDet 21%, SARS PLpro yeast inconclusive and NS1 function inh -12%.
For Cc1nn(Cc2c(F)c(F)c(F)c(F)c2F)c(C)c1NC(=O)c1ccc(COc2ccccc2Cl)cc1 the results were 2A StopGo -25%, Marburg entry inh 2%, Cruzain Triton 4.5%, LASV entry inh -7%, RE007 growth inh -2%, Cruzain inh noDet -26%, SARS PLpro yeast -1% and NS1 function inh 14%.
Screening COc1ccc(N2CCN(c3ccc(-c4nc(-c5ccccc5C)no4)cc3[N+](=O)[O-])CC2)cc1 returned 2A StopGo -13%, Marburg entry inh inconclusive, Cruzain Triton -5.7%, LASV entry inh 5%[46.1 µM] and Cruzain inh noDet 0%.
CC1(C)[C@@H](O)CC[C@]2(C)[C@H]3C(=O)C=C4[C@@H]5C[C@@](C)(C(=O)O)CC[C@]5(C)CC[C@@]4(C)[C@]3(C)CC[C@@H]12 was read as 2A StopGo inconclusive, Marburg entry inh -5%, Cruzain Triton -2.3%&2.2%, LASV entry inh 7%, RE007 growth inh 5%, Cruzain inh noDet inconclusive, SARS PLpro yeast -20% and NS1 function inh 4%.
For O=C(Nc1ccc(-c2csc(-c3ccccc3)n2)cc1)c1ccccc1 the results were 2A StopGo 0%, Marburg entry inh inconclusive, Cruzain Triton 8.7%, LASV entry inh inconclusive, RE007 growth inh -16%, Cruzain inh noDet inconclusive, SARS PLpro yeast -5% and NS1 function inh -11%.
CCOC(=O)c1cc2c(=O)n3ccccc3nc2n(CC2CCCO2)c1=NC(=O)c1cccc(C)c1 (stereo not drawn) was read as 2A StopGo 11%, Marburg entry inh 0%[46.1 µM], Cruzain Triton -1.4%, LASV entry inh inconclusive and Cruzain inh noDet -13%.
O=C(c1ccc(Br)cc1)N1CCN(CCc2ccncc2)CC1 was read as 2A StopGo -10%, Marburg entry inh inconclusive, Cruzain Triton -0.4%, LASV entry inh -4%[46.1 µM] and Cruzain inh noDet -1%.
N#CC1=C(N)NC(SCC(=O)O)=C(C#N)C12CCCC2 was read as 2A StopGo -18%, Marburg entry inh -21%[46.1 µM], Cruzain Triton -3.5%, LASV entry inh -2%, RE007 growth inh 13%, Cruzain inh noDet -15%, SARS PLpro yeast 11% and NS1 function inh 2.2µM*.
Screening O=[N+]([O-])c1ccc(C=NNC(=S)NN=Cc2ccc([N+](=O)[O-])cc2)cc1 returned 2A StopGo 3%, Marburg entry inh -5%[46.1 µM], LASV entry inh -7%[46.1 µM] and RE007 growth inh -6%.
Screening O=C(CNC(=O)c1ccc(S(=O)(=O)N2CCCCC2)cc1)N/N=C/c1ccco1 returned 2A StopGo -26%, RE007 growth inh 10%, SARS PLpro yeast 1% and NS1 function inh 5%.
Screening c1ccc(Cn2nnc3ccccc32)cc1 returned 2A StopGo 6%, Marburg entry inh 3%, LASV entry inh 2%, RE007 growth inh 4%, SARS PLpro yeast 5% and NS1 function inh -6%.
`COc1ccc(-c2nc(NC(=O)c3cc(C(C)(C)C)nn3C)sc2C)cc1` gave 2A StopGo 28µM*, Marburg entry inh 9.2µM*, Cruzain Triton -11%, LASV entry inh inconclusive, RE007 growth inh -9%, Cruzain inh noDet inconclusive, SARS PLpro yeast -5% and NS1 function inh -7%.
For CC(=O)CSc1ncnc2scc(-c3ccc(F)cc3)c12 the results were 2A StopGo -2%, Marburg entry inh 4%[46.1 µM], LASV entry inh -18%[46.1 µM], RE007 growth inh 8%, SARS PLpro yeast -2% and NS1 function inh -12%.
`Cc1ccc(C)c(NC(=O)CSc2nncn3c2cc2sccc23)c1` gave 2A StopGo -12%, Cruzain Triton -1.3%, LASV entry inh 0%[46.1 µM] and Cruzain inh noDet 6%.
`C=CCOC(=O)CC(NC(=O)c1ccccc1)c1ccccc1` (stereo not drawn) gave 2A StopGo 4%, Marburg entry inh -5%, Cruzain Triton -1.8%, LASV entry inh 2%, RE007 growth inh 2%, Cruzain inh noDet -4%, SARS PLpro yeast -4% and NS1 function inh -5%.
For Cc1sc(NC(=O)c2ccco2)nc1-c1ccccc1 the results were 2A StopGo -19%, Marburg entry inh inconclusive, Cruzain Triton -11%, LASV entry inh inconclusive, RE007 growth inh -29%, Cruzain inh noDet -5%, SARS PLpro yeast -27% and NS1 function inh -40%.
For Cc1noc(C)c1C(=O)NC1CCCc2ccccc21 (stereo not drawn) the results were 2A StopGo -18%, Marburg entry inh -3%, Cruzain Triton 6.1%, LASV entry inh 5%, RE007 growth inh -8%, Cruzain inh noDet -4%, SARS PLpro yeast 1% and NS1 function inh -1%.
Screening CCOc1ccccc1NC(=O)COC(=O)C(CC)c1ccccc1 (stereo not drawn) returned 2A StopGo -17%, RE007 growth inh -10%, SARS PLpro yeast -6% and NS1 function inh -6%.
`Cc1cccc(NC(=S)NCCc2ccc(F)cc2)c1C` gave 2A StopGo 63%[activator], RE007 growth inh -10%, SARS PLpro yeast -2% and NS1 function inh -9%.
O=[N+]([O-])c1ccccc1S(=O)(=O)Nc1ccn(Cc2c(F)cccc2Cl)n1 was read as 2A StopGo 0%, Marburg entry inh 5%, LASV entry inh -15%, RE007 growth inh 3%, SARS PLpro yeast -1% and NS1 function inh -7%.
Screening O=S(=O)(c1cccc(-c2nc3n(n2)Cc2ccccc2-3)c1)N1CCCC1 returned Marburg entry inh 0%, Cruzain Triton 0.9%, LASV entry inh 10%, RE007 growth inh 18%, Cruzain inh noDet 18%, SARS PLpro yeast 2% and NS1 function inh -11%.
`Cc1nc(N2CCC(C)CC2)c2oc3ccccc3c2n1` gave 2A StopGo inconclusive, Marburg entry inh inconclusive, Cruzain Triton -5.3%, LASV entry inh inconclusive, RE007 growth inh 26%, Cruzain inh noDet 2%, SARS PLpro yeast 9% and NS1 function inh -84%.
